Assay outcomes from PubChem BioAssay.
GAA glycogen mod: qHTS Assay for Inhibitors and Activators of Human alpha-Glucosidase Cleavage of Glycogen; Lysosomal alpha-glucosidase (Homo sapiens), P10253; recombinant GAA, glycogen substrate, Amplex Red glucose oxidase fluorescence; Potency, µM (top dose mostly 76.4 µM), for inactives: at the highest dose activity change, negative = inhibition, actives largely listed as inhibitors; 300,000 compounds, 0.38% hits; AID 2100, 2009;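 also: 0% = full enzyme reaction and -100% = no-enzyme basal signal; the screen sought inhibitors and activators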
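Recombinant human alpha-glucosidase (4 nM final) hydrolysed bovine liver glycogen (30 ug) for 40 min at 37 C in pH 5.0 citrate/phosphate with 0.01% Tween-20. Released glucose detected by glucose oxidase/Amplex Red, Ex 573/Em 610 nm. Compounds up to 77 uM; AC50 from Hill fits.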
IMPase Li cell: qHTS Assay for Identifying the Cell-Membrane Permeable IMPase Inhibitors: Potentiation with Lithium. 210,000 compounds, 0.35% hits. Potency, µM (series often up to 59.4 µM), without a hit: at the top dose activity, negative = IMPase inhibition, usual class: inhibitors. CHO-M1 cells, IP1 TR-FRET (IP-One), carbachol + lithium. AID 1457, 2008;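 also: IP1 builds up when IMPase is blocked and the TR-FRET signal falls; plate controls were basal vehicle for no effect and high inhibitor control for full effect; nearly all actives have a fitted effect of over 50% in size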
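Readout is a homogeneous TR-FRET IP1 immunoassay (Ex 320, Em 665 and 620), where raised cytosolic IP1 lowers signal. Cells were CHO-M1 treated 30 min at 37C with test compounds plus a little lithium; AC50 values came from Hill-equation fitting.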
aGlu spleen mod: qHTS Assay for Inhibitors and Activators of Human alpha-Glucosidase From Spleen Homogenate; Potency, µM (doses to about 79.9 µM), without a hit: at the highest dose activity change, negative = inhibition, hits mostly inhibitors; Lysosomal alpha-glucosidase (Homo sapiens), P10253; 240,000 compounds, 0.006% hits; human spleen homogenate, 4-MU-alpha-glucoside fluorescence;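 also: 0% = enzyme with vehicle and -100% = no enzyme basal signal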
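Human spleen homogenate (1 ug) with 4-methylumbelliferyl-alpha-D-glucopyranoside (1 mM final) in 50 mM citrate/phosphate pH 5.0, 0.01% Tween-20; 40 min at 37 C. Stopped at pH 10; 4-MU fluorescence Ex 365/Em 440 nm; AC50 by Hill fit.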
HTT ATP protect: qHTS Multiplex Assay to Identify Dual Action Probes in a Cell Model of Huntington: Cytoprotection (ATP) | PC12 HTT-Q103 induced, cytoprotection, ATP luminescence, 40 h | Potency, µM (highest dose often 56.4 µM), inactives show cytoprotection (ATP increase), most hits filed as activators | 230,000 compounds, 0.14% hits | AID 1471, 2008;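 also: % of control where 0% means no effect; nearly all actives have a fitted effect of over 45% in size; toxic huntingtin expression switched on by the ecdysone agonist tebufenozide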
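PC12 cells with ecdysone-inducible HTT exon 1 Q103-GFP, induced with 100 nM tebufenozide and co-treated with library compounds in a dose series (1536-well, 1500 cells/well). Cytoprotection read as ATP content by ATPlite luminescence.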
HttQ103 aggreg: qHTS Multiplex Assay to Identify Dual Action Probes in a Cell Model of Huntington: Aggregate Formation (GFP); PC12 HttQ103-GFP aggregates, Acumen cytometry, 40 h; Potency, µM (top dose mostly 46.1 µM), inactives show top-dose activity change, negative = inhibition, hits mostly inhibitors; 220,000 compounds, 1.1% hits; AID 1688, 2009; also: % is scaled to controls: 0 for no effect and ±100 for the full control effect; nearly all actives have a fitted effect of over 60% in size
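Ecdysone-promoter PC12 model expressing HTT exon 1 Q103 fused to GFP, induced by tebufenozide at 100 nM final. Compounds titrated; aggregates sized 1–25 µm scored on a 488 nm laser cytometer.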
GAA inhib: qHTS Assay for Inhibitors of Human alpha-Glucosidase as a Potential Chaperone Treatment of Pompe Disease; purified human GAA, 4-MU-alpha-glucoside fluorescence; Potency, µM (titrated, usually from 76.9 µM), inactives show top-dose activity change, negative = inhibition, hits mostly inhibitors; 200,000 compounds, 0.005% hits; AID 1466, 2008;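 also: plate controls were uninhibited enzyme wells for no effect and no-enzyme background for full effect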
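Human enzyme at 4 nM with 400 uM 4-methylumbelliferyl-alpha-D-pyranoside, citrate/phosphate buffer pH 5.0, 0.005% Tween-20, 20 min at room temperature. Compounds up to 77 uM. 4-MU fluorescence (Ex 365/Em 440) read after NaOH/glycine stop; AC50 from Hill fit.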
* = called active by the depositor; ? = inconclusive; nt = no result given; & = joins results of further samples; [ ] = dose if it differs, or a comment. Calls follow the shape of the dose curve; as a rule, active = well fitted curve in the direction sought with a large enough effect; inconclusive = small, poorly fitted or top-dose-only effect, or another doubt; inactive = no such curve, though single readings can be large; an effect the other way counts as inactive or inconclusive. Potency is read from the fitted curve at half-maximal effect.

SMILES	GAA glycogen mod	IMPase Li cell	aGlu spleen mod	HTT ATP protect	HttQ103 aggreg	GAA inhib
COc1ccc(-c2csc(NC(=O)COC(=O)c3ccco3)n2)cc1	8%	-2%	-6%	-11%[10 µM]	-19%	-26%
COc1ccc(Cl)cc1C(=O)NNC(=O)c1nc2nc(C)cc(C)n2n1	6%	nt	-7%	17%[10 µM]	16%[9.22 µM]	nt
C/C(=N\NC(=O)c1cccnc1)c1c(O)cc(C)oc1=O	-4%	-1%	-5%	12%[10 µM]	-1%	-7%
CCOC(=O)c1cc(C#N)c(N2CCOCC2)nc1-c1ccccc1	5%	14%	2%	nt	14%	?
CCCc1c(CC)c(=N)c2ccccc2n1C	2%	20%[38.3 µM]	-9%	-1%[10 µM]	?	-2%
Cc1cccc(COCC(Cc2ccccc2)N2CCN(C(=O)c3cccc(Cl)c3)CCC2=O)c1 (stereo not given)	-5%	12%	-14%	nt	-2%	-10%
O=C1OCCN1C(=O)[C@H]1[C@H](c2ccc(F)cc2)C(c2ccccc2)=NN1c1ccccc1	nt	-4%	3%	-64%[inhibitor]	nt	nt
CCCn1nnc(NC(=O)c2ccc(-c3cc(Cl)ccc3Cl)o2)n1	5%	-23%	21%	nt	-3%	3%
CCCCn1ccc(=O)c2c(C(F)(F)F)nccc21	3%	-11%[38.3 µM]	-3%	-14%	?	-4%
COc1ccc(OC)c(C2CC(=O)N3CN(c4cccc(Cl)c4C)CSC3=C2C#N)c1 (stereo not given)	5%	-13%[38.3 µM]	1%	-19%	5%	?
COc1ccc(C2NC(c3ccc(OC)c(OC)c3OC)C(C)C(=O)C2C)c(OC)c1OC (stereo not given)	1%	1%	-5%	-23%[0.074 µM]	-12%	-6%
O=C(CSc1nnnn1Cc1ccccc1)N1CCN(c2ccccc2)CC1	0%	13%	-1%	42%[10 µM]	14%	?
CN(NC(=O)/C=C/C(=O)O)c1ncc(C(F)(F)F)cc1Cl	-12%	0%	7%	-55%[inhibitor]	-2%	-9%
O=C(Nc1ccc(Cl)cn1)C1CCCN1S(=O)(=O)c1ccccc1 (stereo not given)	-1%	-15%[38.3 µM]	-1%	-26%	-4%	?
COc1ccc(OC)c(-n2c(-c3cc(-c4ccccc4)n[nH]3)n[nH]c2=S)c1	-6%	-5%	4%	15%[10 µM]	20%	?
O=[N+]([O-])c1ccc(COc2ncnc3ccccc23)cc1	10%	10%	5%	-24%	-1%	9%
S=c1nn[nH]n1C12CC3CC(CC(C3)C1)C2	-24%	22%[38.3 µM]	-1%	0%	15%	-3%
CN(C)C(CNC(=O)c1ccc2c(=O)n(-c3ccccc3F)c(=S)[nH]c2c1)Cc1ccccc1 (stereo not given)	5%	3%	2%	-7%	5%	10%
O=C(/C=C/c1cn(-c2ccccc2)nc1-c1cccs1)NCCN1CCOCC1	-5%	nt	-5%	2%[10 µM]	-1%[9.22 µM]	-5%
O=C(Nc1ccc2oc(=O)ccc2c1)c1ccc(-c2cccc(Cl)c2)o1	-3%	nt	-2%	7%[10 µM]	9%[9.22 µM]	nt
c1ccc2c(c1)CCCN2Cc1nnnn1C1CCCC1	-8%	34%[38.3 µM]	-5%	-19%[10 µM]	0%	-8%
COc1cc2c(cc1OC)CN(C(=O)CC1CC3CCC1C3)CC2 (stereo not given)	8%	14%[38.3 µM]	-3%	-24%	10%	-7%
COc1ccc(C/C(N)=N/OC(=O)c2cccs2)cc1	9%	1%	10%	-23%	11%	-5%
Cn1c(Cc2cccc3ccccc23)nnc1SCc1ccc([N+](=O)[O-])cc1	18%	4%	0%	5%[10 µM]	7%	3%
Cc1nn(-c2ccccc2)c2[nH]c(=O)c(CNCCN3CCOCC3)cc12	-4%	21%[38.3 µM]	-5%	-8%	-12%	9%

Overlap with the part before: 2 entries, then new ones.
SMILES	GAA glycogen mod	IMPase Li cell	aGlu spleen mod	HTT ATP protect	HttQ103 aggreg	GAA inhib
Cn1c(Cc2cccc3ccccc23)nnc1SCc1ccc([N+](=O)[O-])cc1	18%	4%	0%	5%[10 µM]	7%	3%
Cc1nn(-c2ccccc2)c2[nH]c(=O)c(CNCCN3CCOCC3)cc12	-4%	21%[38.3 µM]	-5%	-8%	-12%	9%
CCCCC(c1nnnn1CCOC)N1CCN(CC)CC1 (stereo not given)	4%	14%	0%	7%[10 µM]	-12%	-2%
CC(=O)Nc1ccc(NC(=S)NC(=O)c2ccc([N+](=O)[O-])c(C)c2)cc1	-7%	-6%	1%	-15%[10 µM]	-9%	10%
COc1cc(CNC2CCCC2)cc(OC)c1	5%	14%[38.3 µM]	4%	-4%[10 µM]	-17%	-1%
CCNC(=O)Cn1cc(C#N)c2ccccc21	8%	4%	-2%	0%[10 µM]	0%	4%
CN(C)CCCNc1cc(Cl)c(S(=O)(=O)N2CCCCC2)cc1C(=O)O	2%	25%[38.3 µM]	-4%	11%	-17%	-6%
COc1ccc(OCc2nnc(SCC(=O)c3ccccc3)o2)cc1	-12%	11%	-14%	nt	nt	3%
COc1ccc(CC(=O)c2cc(OC)c(OC)cc2CC(=O)O)cc1OC	?	-4%[38.3 µM]	7%	5%	14%	-5%
C=CCn1c(CCNC(=O)c2ccccc2F)nnc1SCc1nc2ccccc2c(=O)[nH]1	-6%	-6%[38.3 µM]	-14%	-12%	-2%	0%
CCn1c(Cc2ccccc2)nnc1SCC(=O)Nc1ccccc1	11%	-4%[38.3 µM]	4%	-3%[10 µM]	0%	-1%
Cc1cccc(C(=O)N2CCC(=O)N(C(COCc3ccccc3)Cc3ccccc3)CC2)c1 (stereo not given)	2%	20%	-6%	nt	-14%	5%
CCNCCC(CCC(C)C)c1ccc2c(c1)OCO2 (stereo not given)	1%	nt	13%	-96%[inhibitor][10 µM]	-42%[9.22 µM]	-14%[15.4 µM]
CCOC(=O)C1CCN(C(=O)NC23CC4CC(CC(C4)C2)C3)CC1	-5%	21%[38.3 µM]	11%	24%[10 µM]	21%	-2%
CN1CSC2=C(C#N)C(c3cccc(OCc4ccccc4)c3)CC(=O)N2C1 (stereo not given)	1%	5%[38.3 µM]	-3%	-14%	11%	-3%[15.4 µM]
CC(Cc1ccccc1)C(=O)N1CCN(C)CC1 (stereo not given)	10%	8%&-8%	1%&-17%	-5%	1%	-1%
COc1ccc(C2Sc3ccccc3N(CCN(C)C)C(=O)[C@@H]2OC(C)=O)cc1 (stereo not given in full)	nt	3%&21%	4%&20%	-20%&-3%	nt	nt
Fc1cccc(Cl)c1CSc1ncn[nH]1	-2%	-10%[38.3 µM]	-5%	-14%	-8%	-4%
COc1ccc(S(=O)(=O)N(CCc2ccccc2)CC(=O)NC(C)C)cc1	3%	32%[activator][38.3 µM]	-7%	7%	-10%	-3%
COC(=O)N/N=C/c1c(C)c(C(=O)c2ccc(F)cc2)n2ccccc12	16%	12%	-4%	7%[10 µM]	-13%	4%
Cc1cc(C)c(S(=O)(=O)Nc2ccccc2C(F)(F)F)c(C)c1	nt	17%	-1%	21%	nt	nt
Cc1ccccc1NC(=O)NCC1CCN(C(=O)OC(C)(C)C)CC1	6%	nt	8%	-14%[10 µM]	-3%[9.22 µM]	nt
COC(=O)c1ccccc1NC(=O)Cn1c(SC)c(F)cnc1=O	-5%	?	12%	4%	25%	3%
CCn1c(SCC(=O)N/N=C/c2ccc(C)o2)nnc1-c1ccccc1	-6%	9%	-5%	-4%[10 µM]	-11%	5%
O=C1NCC(O)=C1C=NC12CC3CC(CC(C3)C1)C2	1%&0%	3%&19%[38.3 µM]	-15%&-1%	-12%	-1%&-9%	1%&-3%
O=C(CSc1ncn(-c2ccccc2)n1)c1cccs1	-10%	17%[38.3 µM]	-4%	-24%	5%	-11%
Cc1cc(C)nc(SCc2cccc(C(=O)O)c2)n1	7%	2%[38.3 µM]	9%	-20%[0.074 µM]	?	-1%
SMILES	GAA glycogen mod	IMPase Li cell	aGlu spleen mod	HTT ATP protect	HttQ103 aggreg	GAA inhib
COc1cc2c(cc1OC)CN(C(=O)COc1ccc(C#N)cc1)CC2	4%	-2%[38.3 µM]	-6%	5%[10 µM]	6%	-3%
COc1cc(OC)c(C2CC(=O)N3CN(c4ccccc4C)CSC3=C2C#N)cc1OC (stereo not given)	?	-1%	-16%	3%[10 µM]	24%	-2%
CCCCOc1ccccc1-c1cc(C(=O)O)[nH]n1	5%	-1%[38.3 µM]	-4%	-44%[inhibitor]	11%	-8%
COc1ccc(CN2CCNC(=O)C2CC(=O)NCCC2=CCCCC2)cc1OC (stereo not given)	-5%	5%	8%	26%[10 µM]	1%[9.22 µM]	15%
COc1ccccc1N1C(=O)C2C(C(=O)c3ccccc3)=NN(c3ccccc3OC)C2C1=O (stereo not given)	-1%	nt	-6%	-5%[10 µM]	-31%[9.22 µM]	nt
COc1ccc(CCNc2ncnc3sccc23)cc1OC	-1%	20%	5%	13%[10 µM]	1µM*	10%
CC(C)C(NC(=O)c1ccc2c(c1)OCO2)C(=O)N/N=C\c1ccco1 (stereo not given)	-3%	1%[38.3 µM]	-3%	-7%	-8%	-3%
CCCCN1C=CC(=C2N=c3cccc([N+](=O)[O-])c3=N2)C=C1	10%	-14%	-2%	24%[10 µM]	0.89µM*	-4%
C=CCn1c(COc2ccc(Cl)cc2)nnc1SCC(=O)Nc1ccc(S(N)(=O)=O)cc1	-4%	6%	13%	nt	5%	-4%
COc1ccc(C(=O)Nc2nnc(-c3ccccc3)o2)cc1OC	-7%	0%[38.3 µM]	3%	-16%	?	-1%
CCOC(=O)c1cc(C#N)c(Oc2ccccc2OC)nc1-c1ccccc1	-4%	13%[38.3 µM]	-9%	-10%	-28%	-4%
Cn1c(SCC(=O)NC(=O)NCc2ccco2)nnc1C(F)(F)F	-12%	9%[38.3 µM]	-1%	-7%[10 µM]	6%	0%
N#C/C(=C/c1ccc(-c2ccc(C(=O)O)c(Cl)c2)o1)C(=O)NCC1CCCO1 (stereo not given)	3%	17%	-4%	nt	5%	-3%
COc1ccc2sc(N(CCN(C)C)C(=O)/C=C/c3cccs3)nc2c1	-6%	5%	-5%	-10%	-18%	-12%
CCCN1C(=O)c2[nH]nc(-c3cc(Cl)c(C)cc3O)c2C1c1ccc(O)c(OC)c1 (stereo not given)	-23%	nt	7%	20%[10 µM]	34%[9.22 µM]	nt
O=C(NCCN1C(=O)S/C(=C\c2cccnc2)C1=O)c1cccc(OC(F)F)c1	7%	8%	3%	9%[10 µM]	17%	6%

This is a subset; rates above refer to the full screens.
